Assay outcomes: PubChem, several laboratories
Bead autofluor: compound fluorescence in toxin protease inhibitor counterscreen. compound autofluorescence counterscreen, microsphere flow cytometry; active compounds read high. AID 624483. fluorescence intensity (test concentration not listed). 360,000 tested, 3.1% active;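 active = at least 3 SD above the mean of all compounds, about 16000 in these data; inconclusive = too few beads counted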;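 note: 100 nL of 1 mM stock went into each well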
Mtb hypoxia rep: reduces hypoxia-regulated biosensor signal in M. tuberculosis; M. tuberculosis hypoxia-regulated fluorescent reporter, fluorescence; 300,000 tested, 0.1% active; AID 1159583; fluorescence inhibition, % (test concentration not listed);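 active = 35 to 45% if threefold the growth effect, above 45% if 1.5-fold the growth effect; inactive = the rest, general growth blockers included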;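 note: wells of about 50 µL received 100 nL stock; 0% = vehicle wells and 100% = reference inhibitor wells; whole bacteria with a GFP reporter of the hypoxia response; strong numbers were not always called active; many hits fall short of the cut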
Sa ugtP lethal: compounds lethal to S. aureus RN4220 ugtP deletion mutant | OD600 growth, 16 h; some inactives read as strong as hits | growth inhibition, % (test concentration not listed) | 330,000 tested, 0.54% active;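 active = z-score under -3 and OD600 up to 0.15 on both plates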;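 note: plate controls were untreated wells for no effect and antibiotic for full effect; wells of about 80 µL received 100 nL stock; the first replicate is given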
PrP 5UTR inh: inhibition of PrP 5' UTR reporter expression. cell-based PrP 5' UTR mRNA reporter, plate reader. inhibition, % (concentration not given with the values). 340,000 tested, 0.35% active. AID 488862;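 active = every replicate at 50% or more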;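 note: 0 = median of the neutral control wells; tested in H4 reporter cells; numbers are from one replicate; inactives centre near -14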
BJeLR lethal: BJeLR cell viability loss. BJeLR (HRASV12) viability, CellTiter-Glo ATP luminescence, 48 h; reference of the scale not given here. inhibition, % (concentration not given with the values). 300,000 tested, 0.17% active. AID 1554;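 active = replicate mean above 50%; inconclusive = above 50% but judged a plate artefact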;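 note: 50 nL library stock added to about 25 µL; numbers are from one replicate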
Sa RN4220 lethal: S. aureus RN4220 growth inhibition | OD600, 16 h | inhibition, % (no concentration beside the values) | 330,000 tested, 0.33% active;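 active = z-score of -3 or lower and OD600 up to 0.18 on both plates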;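 note: plate controls were untreated cells for no effect and reference antibiotic for full effect; stock transfer was 100 nL into about 80 µL; one replicate is shown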
Mtb hypoxia rep growth: further read-out of Mtb hypoxia rep, marked with its call; growth inhibition, %; measured here: M. tuberculosis growth (absorbance);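 0% = vehicle and 100% = reference antibiotic; read after six days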
* hit, by the source's call; ? = inconclusive; nt = no result given; & = joins results of further samples.

SMILES	Bead autofluor	Mtb hypoxia rep	Mtb hypoxia rep growth	Sa ugtP lethal	PrP 5UTR inh	BJeLR lethal	Sa RN4220 lethal
COc1ccc(NC(=S)N2CCC(C(=O)c3ccc(OC)cc3)CC2)cc1	4323	-3	5	-3	-137	-4	-4.4
O=C(/C=C/Nc1ccc(S(=O)(=O)Nc2cnc3ccccc3n2)cc1)c1cccnc1	6560	-5	5	-6	-5	-13	0.6
CCC1=Nc2cc(C(=O)N3CCC4(CC3)OCCO4)ccc2Sc2ccccc21	5448	1	10	-1	-6	5	3.3
CC(C)(C)/C(O)=C/c1nc2ccccc2oc1=O	4388	nt	nt	-8	-4	-3	5.1
Cc1ccsc1C(=O)NCCc1ccco1	3536	-4	8	3	-33	nt	7.3
Cc1ccc(CNC(=O)c2ccc(F)c(S(=O)(=O)N3CCOCC3)c2)cc1	?	1	1	4	-2	nt	3.9
CN1CCc2cc3c(cc2C1C1OC(=O)c2c1ccc1c2OCO1)OCO3 (stereo unspecified)	nt	-3	2	-1	nt	nt	5.8
C[Si](C)(C)n1ccnc1	5528	nt	nt	nt	-19	-13	nt
COCc1ccc(C(=O)NC2CCCN(Cc3ccccc3F)C2)o1 (stereo unspecified)	5855	11	-6	5	-42	-4	4.2
O=C(CSc1nc(O)c(Cc2ccccc2)c(=O)n1-c1ccccc1)N1CCOCC1	2829	-11	4	-2	-15	7	-0.1
O=C(COc1ccccc1)NCC(=O)N/N=C/c1cccs1	3121	nt	nt	nt	-10	1	nt
CC(=O)c1cccc(NC(=O)C(C)OC(=O)CCCN=C2NS(=O)(=O)c3ccccc32)c1 (stereo unspecified)	7729	-7	0	4	-5	2	3.9
O=C(CNc1ccccc1OC(F)F)N1CCc2ccccc21	4623	1	3	-1	-20	6	3.5
CC(=O)Oc1ccc(Oc2ccc(-c3noc(C)n3)cc2)cc1	9121	5	7	1	-41	-6	2.4
Cc1ccc(-n2c(N)cc(=O)nc2SCC(=O)N2CCN(c3ccccc3)CC2)cc1C	5754	0	-1	1	-7	-1	-0.2
COc1cccc(CC(=O)NNC(=O)c2ccc3c(c2)OCO3)c1	5528	5	-4	2	27	-12	4.8
O=C(Nc1cccc(-n2cnnn2)c1)c1ccoc1COc1ccc(Cl)cc1	6367	9	-2	-10	-2	3	-8.1
Cn1c(=O)[nH]c(=O)c2c1nc(Sc1ccccc1)n2CCc1ccccc1	5883	4	2	17	5	1	9.7
CNCCOc1ccccc1-c1ccccc1	3502	nt	nt	1	-3	7	1.4
COc1ccc(CCC(=O)NCc2ccccc2OC)cc1	3806	-9	0	-4	11	2	1.3
Cc1ccccc1-c1nc(-c2ccc(NC(=O)c3ccc4c(c3)OCO4)cc2)no1	9585	6	14	-13	-9	11	-3.0
COc1ccc(C(=O)Oc2c(OC)cc(C(=S)N3CCOCC3)cc2OC)cc1OC	nt	6	1	2	30	1	0.5
CCN(CC)S(=O)(=O)c1ccc(C(=O)Nc2nnc(C(C)C)s2)cc1	4390	-1	-1	0	-1	-1	2.4
O=C(O)Cn1cnc2scc(-c3cccs3)c2c1=O	4367	nt	nt	0	-21	1	-1.0
Cc1ccc(OCC(=O)N2CCN(C(=O)CCC3CCCC3)CC2)cc1	2424	nt	nt	7	-8	4	-0.4
CC(=O)NS(=O)(=O)c1ccc(N=c2ssc3c2-c2cc(C)ccc2NC3(C)C)cc1	9695	nt	nt	nt	-1	24	nt
CC1CCCCN1C(=O)COC(=O)c1n[nH]c2ccccc12 (stereo unspecified)	3326	11	-2	5	-45	-2	5.1
COc1ccc2nc(-n3c(C)ccc3C)sc2c1	13426	-5	2	30	-36	2	12
CCOCCCNC(=O)c1c[nH]c2c(CC)cccc2c1=O	4318	14	1	2	-4	1	-6.1
CN(c1ccccc1)S(=O)(=O)c1cccc(C(=O)NCC(=O)Nc2ccc(F)c(F)c2F)c1	7980	4	-3	-4	-2	nt	2.7
O=C(Nc1ccccc1F)C1CCN(C(=O)NC2CCCCC2)CC1	5660	nt	nt	nt	-24	-10	nt
Cc1ccc(C(=O)N(C)CC(=O)Nc2cccc(F)c2)cc1S(=O)(=O)N1CCCCC1	?	1	1	5	-10	2	2.4
CCCNC(=O)c1onc(CSc2ccc(F)cc2)c1C(=O)NCCC	2866	-3	7	4	-19	1	10
COc1ccc(/C(O)=C2\C(=O)C(=O)N(c3cc(C)on3)C2c2cccc(OC)c2OC)cc1C (stereo unspecified)	3949	nt	nt	3	-32	0	2.2
CCOc1ccc(Br)cc1C(=O)N/N=C/c1ccccn1	3965	nt	nt	nt	-7	-1	nt
O=C(CCCOc1ccc(Cl)cc1Cl)Nc1cccnc1	5993	1	9	-6	-20	6	1.0
Cc1ccc(CNC(=O)C2CCCN(c3nc4ccccc4o3)C2)cc1 (stereo unspecified)	4531	6	5	8	-25	0	4.4
Cc1ccc(-c2nc(S(=O)(=O)c3ccc(C)cc3)c(N3CCOCC3)o2)cc1	3794	10	7	2	-18	-4	0.1
COc1ccccc1NC(=O)C(=O)N/N=C(\C)CC(=O)Nc1ccccn1	2378	nt	nt	nt	-8	-1	nt
CC(C)N(C)Cc1cn(C)nc1-c1ccc(Oc2ccccc2)cc1	3249	13	4	16	-22	1	3.8
O=C(O)CCCCCN1C(=O)C(O)=C(C(=O)C=Cc2ccccc2)C1c1ccccc1[N+](=O)[O-] (stereo unspecified)	nt	-1	-2	-4	nt	nt	6.5
O=C(Cn1c(=O)[nH]c2ccsc2c1=O)NC1CCCCC1	10928	0	12	-1	2	-3	-0.7
Cc1c(C(=O)NCc2ccccc2)c(-c2ccccc2)nn1-c1ccccc1	10271	4	3	8	-11	2	0.0
Cc1ccc2nc(C)c(C(=O)NN=C3CCCCCC3)n2c1	1962	0	4	-11	-6	-5	-1.3
CN(CC(=O)Nc1ccc(F)cc1)C(=O)c1cc2c(s1)CCCCC2	nt	-4	2	2	-14	-7	1.0

Full records, looked up by structure. Order of values: Bead autofluor	Mtb hypoxia rep	Mtb hypoxia rep growth	Sa ugtP lethal	PrP 5UTR inh	BJeLR lethal	Sa RN4220 lethal
COc1ccccc1NC(=O)C(=O)N/N=C(\C)CC(=O)Nc1ccccn1 as listed: 2378	nt	nt	nt	-8	-1	nt
Cc1ccc(C(=O)N(C)CC(=O)Nc2cccc(F)c2)cc1S(=O)(=O)N1CCCCC1 as listed: ?	1	1	5	-10	2	2.4
COc1ccc(/C(O)=C2\C(=O)C(=O)N(c3cc(C)on3)C2c2cccc(OC)c2OC)cc1C (stereo unspecified) as listed: 3949	nt	nt	3	-32	0	2.2
CN(CC(=O)Nc1ccc(F)cc1)C(=O)c1cc2c(s1)CCCCC2 as listed: nt	-4	2	2	-14	-7	1.0

New compounds follow
SMILES	Bead autofluor	Mtb hypoxia rep	Mtb hypoxia rep growth	Sa ugtP lethal	PrP 5UTR inh	BJeLR lethal	Sa RN4220 lethal
COc1ccc(CN=C2NC(=O)CC(C(=O)Nc3ccc(F)cc3)S2)cc1 (stereo unspecified)	10306	5	-3	-1	-16	-4	-1.1
Cc1cc(C(F)(F)F)n2ncc(-c3cccc(Br)c3)c2n1	3450	20	5	6	3	6	4.8
O=C(CSc1cccc[n+]1[O-])N1CCc2ccccc21	4229	3	-7	2	-44	-6	9.8
COc1cc(/C=N\NC(=O)c2ccc(=O)[nH]n2)cc(OC)c1OC	4703	nt	nt	nt	-17	2	nt
CCCN1CCN(C(=O)c2cccc3c2C(=O)N(CCOC)C3)CC1	7056	6	5	-3	-22	5	2.7
CN1C(=O)CC(N2CCN(c3ccc(Cl)cc3)CC2)C1=O (stereo unspecified)	2462	4	4	8	-22	1	1.4
COc1cc(CCCN2C(=S)NC[C@H]2Cc2ccc(O)cc2)cc(OC)c1OC	3589	nt	nt	nt	-16	4	nt
O=C(N/N=C/c1ccc2c(c1)OCO2)c1sc2cc(Cl)ccc2c1Cl	2042	nt	nt	nt	-23	-13	nt
Cc1ccc(NC(=O)COC(=O)c2nn(C)cc2Cl)cc1	3960	-3	-5	1	-18	1	4.1
Cc1ccc(NC(=O)Cn2c(=O)n(CCCCC(=O)NCc3ccco3)c(=O)c3ccccc32)cc1	2658	nt	nt	0	-11	-5	-2.6
COc1ccc(OC)c(NC(=O)CN2CCC(C(=O)c3ccc(C)cc3)CC2)c1	11878	5	5	3	-15	-4	1.9
Cc1c(Br)c(=O)oc2c(Br)c(O)c(O)cc12	2289	16	-3	-12	0	2	25
N#Cc1ccccc1NCc1ccccc1	2991	nt	nt	nt	-6	0	nt
CCCCc1c(C)nc(Nc2ccc(OC)cc2)[nH]c1=O	2423	11	6	0	-33	12	-2.0
Cc1ccc(-n2ncc3c2CCCC3NC(=O)CCCN2CCCC2=O)cc1C (stereo unspecified)	4177	2	2	8	-8	-1	4.2
CCOC(=O)c1cnc(-n2nc(C)cc2C)nc1Oc1ccc(C(=O)OC)cc1	6054	3	-1	-1	nt	-2	0.7
COCCNC(=O)C(C)Oc1ccccc1 (stereo unspecified)	2577	8	6	2	-8	1	2.6
COc1ccc(-c2nc(N3CCC(C)CC3)[nH]c(=O)c2C#N)cc1	10888	3	6	-4	-14	-2	5.2
O=C(NCCO)C1COc2ccccc2O1 (stereo unspecified)	4203	9	3	-3	-19	-2	2.7
O=C(CCCc1ccccc1)Nc1ccnn1C1CCN(Cc2ccccc2F)CC1	5443	12	9	7	-19	0	4.5
CC(C)CN1C(=O)c2ccc(C(=O)Nc3ccccc3C(=O)O)cc2C1=O	3444	3	7	25	-17	8	11
CC1(c2ccc(OC(F)F)cc2)NC(=O)N(CC(=O)Nc2ccc(Cl)cc2F)C1=O (stereo unspecified)	4413	-5	0	6	-17	10	-4.3
COc1ccc(COCC(O)CN2CCN(S(=O)(=O)c3ccc(C(C)C)cc3)CC2)cc1 (stereo unspecified)	7883	-7	3	3	-7	nt	3.9
CCn1c2ccc(C)cc2c2nc3cc(C(=O)O)ccc3nc21	2545	10	6	11	1	12	8.6
COc1c2ccoc2nc2c(OC)cccc12	13223	24	37	-3	-13&-23	0	0.5
CCOC(=O)C1=NNC(C(=O)c2ccccc2)C1c1ccc(C)cc1 (stereo unspecified)	4200	3	8	12	-12	-10	26
Cc1ccc([N+](=O)[O-])c(OCCN2CCNCC2)c1	2703	-5	-4	2	-7	5	2.9
Cc1cc(C)c2nc(NC(=O)C3CCCO3)sc2c1 (stereo unspecified)	2989	4	7	5	-78	5	6.8
CCn1cc(C(=O)N2CCCC2)c(=O)c2cc(S(=O)(=O)N3CCC(C)CC3)ccc21	6288	6	5	6	7	2	5.3
Cc1ccccc1Nc1nc(-c2ccccc2)c(C(=O)Nc2cccnc2)s1	2604	-4	2	-9	-29	-1	2.9
Cn1c(SCc2nc(-c3ccccc3)no2)nnc1-c1ccco1	4228	nt	nt	5	-26	-4	3.2
Cc1nn(C)cc1C(=O)NNC(=S)Nc1ccc(Cl)cc1	4090	nt	nt	-6	-16	1	1.1
COc1ccc(NC(=O)Cn2c(C)csc2=O)c(OC)c1	4244	2	-1	-1	1	nt	3.6
CCOC(=O)c1ccc(NC(=O)N2C[C@@H]3C[C@@H](C2)c2cccc(=O)n2C3)cc1	5645	nt	nt	-4	-10	11	0.4
CN(C(=O)CSc1ccncc1)C1CCCN(Cc2ccccc2F)C1 (stereo unspecified)	6360	-6	5	-4	-20	-11	-1.9
COc1cccc(C(c2c(O)nc(SC)n(C)c2=O)c2c(O)nc(SC)n(C)c2=O)c1	21226*	-2	8	-4	-14	-7	-2.7
CCC(C)NC(=O)CSc1nnc(-c2ccoc2C)n1CC1CCCO1 (stereo unspecified)	3789	4	2	-6	-1	-2	1.9
COc1ccc(-c2csc(NC(=O)CN3C(=O)C4CC=CCC4C3=O)n2)cc1 (stereo unspecified)	3381	4	10	4	-10	nt	0.3
COc1ccc(OC)c(-c2cc(C(=O)Nc3cc(C)n(Cc4ccc(Cl)cc4)n3)no2)c1	23480*	-9	1	-3	-11	5	1.2
COc1ccc(OC)c(/C=N/N(CCC#N)C2=NS(=O)(=O)c3ccccc32)c1	3900	nt	nt	nt	-4	9	nt
COc1ccc(CCNC(=O)COC(=O)CSc2ccc(C(N)=O)cc2[N+](=O)[O-])cc1OC	3921	-4	12	1	-9	nt	2.0
COC(=O)Cc1cc(=O)oc2cc(O)ccc12	2092	2	6	1	-17	3	-1.9
Cc1nn(C)c(C)c1NC(=O)Nc1cccc(C(F)(F)F)c1	2690	14	3	-5	-42	4	5.0
C/C(=N\NC(=O)c1cccc([N+](=O)[O-])c1)c1cccc(NC(=O)C2CC2)c1	2278	nt	nt	nt	-12	1	nt
